FGF22 binding = binders of human FGF22 protein, primary screen, FGF22 synaptogenesis inhibitor project, biophysical, thermal shift, single point | recombinant FGF22 thermal shift, SYPRO orange fluorescence; percent of sucrose octasulfate shift, DMSO zero | calls only at 9.99 µM | 340,000 tested, 1.5% active | AID 651658, 2012;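 active means melting point raised past a set limit in the mean and every replicate; three in four hits are not shown here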
HNF4A DNA FP = change in binding of human HNF4A to DNA, primary screen, biochemical, fluorescence polarization, FITC-DNA. activity change, % at 10 µM. 1 h. Hepatocyte nuclear factor 4-alpha (Homo sapiens), P41235. 360,000 tested, 0.3% active; in the data active means activity change above about 30%, passing the limit was not always enough;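 further: controls were the assay level and a saturating level of protein; the project sought stronger binding though the title names inhibitors; some compounds called inactive have numbers as strong as hits; positive values seem to mean higher polarization but the record does not say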
Target sequence (P41235 whole entry, looked up): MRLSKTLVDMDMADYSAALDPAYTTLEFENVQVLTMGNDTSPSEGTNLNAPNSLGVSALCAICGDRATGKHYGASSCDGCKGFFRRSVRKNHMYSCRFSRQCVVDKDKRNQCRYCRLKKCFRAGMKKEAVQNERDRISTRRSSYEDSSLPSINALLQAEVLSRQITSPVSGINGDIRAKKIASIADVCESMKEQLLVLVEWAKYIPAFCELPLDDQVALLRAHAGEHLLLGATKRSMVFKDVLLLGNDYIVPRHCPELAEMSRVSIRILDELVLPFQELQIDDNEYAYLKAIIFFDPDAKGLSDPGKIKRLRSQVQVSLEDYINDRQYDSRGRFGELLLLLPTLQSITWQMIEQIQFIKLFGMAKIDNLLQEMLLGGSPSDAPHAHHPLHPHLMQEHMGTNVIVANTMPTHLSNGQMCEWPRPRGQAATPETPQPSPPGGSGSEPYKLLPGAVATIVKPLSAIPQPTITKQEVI
Beta2AR agonist = beta2AR agonists driving receptor internalization, primary screen, cell-based, FAP fluorogen, flow cytometry | Am2.2-beta2AR cells; reference of the scale not given here | response, % (test concentration not listed) | 340,000 tested, 0.43% active | AID 504454, 2011;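 active means response above a set limit, near 3 SD of response in nonfluorescent compounds, cut at about 42% in these data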;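 further: stock transfer was 100 nL into about 11 µL; a reference agonist was the positive control; negative values mostly stem from fluorescent compounds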
ALR H2O2 inh = inhibitors of human ALR sulfhydryl oxidase, primary screen, biochemical, H2O2 detection, HRP-luminol luminescence, single point | purified ALR, DTT oxidation | FAD-linked sulfhydryl oxidase ALR (Homo sapiens), P55789 | inhibition, % (test concentration not listed) | 290,000 tested, 3.8% active | AID 485317, 2010;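 active means mean and each replicate at 75% or more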;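 further: stock transfer was 7.5 nL into about 7.5 µL; 0% = neutral wells and 100% = wells with inactivated enzyme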
Target sequence (P55789 whole entry, looked up): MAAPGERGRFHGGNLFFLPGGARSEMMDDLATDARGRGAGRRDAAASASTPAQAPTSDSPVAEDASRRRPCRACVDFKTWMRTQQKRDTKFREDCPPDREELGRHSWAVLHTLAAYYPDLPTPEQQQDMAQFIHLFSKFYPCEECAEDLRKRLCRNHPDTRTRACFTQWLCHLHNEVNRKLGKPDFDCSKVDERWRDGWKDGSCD
E coli growth = E. coli growth inhibition, primary screen, OD600 | 330,000 tested, 0.21% active | AID 1053175, 2014 | OD600 absorbance (concentration not given with the values) | Escherichia coli growth, 23 h; active compounds read low;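 active means OD600 absorbance below the run mean of sample wells minus 3.6 SD, in any replicate, cut at about 0.56 in these data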;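 further: stock transfer was 300 nL into about 60 µL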
Ecoli rRNA inh = reduced GFP signal of wild-type E. coli, primary screen, bacterial rRNA inhibitor project, GFP/RFP fluorescence, OD600, single point. E. coli WT GFP vs humanized-ribosome RFP mutants, 24 h; active compounds read low; DMSO median 0, no signal -100. GFP signal change (wild-type ribosome), % (no concentration beside the values). 350,000 tested, 1.6% active;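 active means significant combined selectivity score with lowered wild-type GFP, culture density cut under 30%, mutant RFP and density less affected; inactive means any of these conditions unmet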; further: one replicate is shown; some compounds called inactive have numbers as strong as hits
UCH37 inh = inhibitors of human UCH37 deubiquitinase, primary screen, biochemical, Ub-AMC cleavage, fluorescence | inhibition, % (no concentration beside the values) | purified proteasome/UCH37 | 330,000 tested, 0.33% active | AID 588478, 2011;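 active means mean of two replicates above 20%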;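 further: 0% = compound-free wells with enzyme and 100% = wells lacking proteasome; stock transfer was 100 nL into about 20 µL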
Target sequence (Q9Y5K5 whole entry, looked up): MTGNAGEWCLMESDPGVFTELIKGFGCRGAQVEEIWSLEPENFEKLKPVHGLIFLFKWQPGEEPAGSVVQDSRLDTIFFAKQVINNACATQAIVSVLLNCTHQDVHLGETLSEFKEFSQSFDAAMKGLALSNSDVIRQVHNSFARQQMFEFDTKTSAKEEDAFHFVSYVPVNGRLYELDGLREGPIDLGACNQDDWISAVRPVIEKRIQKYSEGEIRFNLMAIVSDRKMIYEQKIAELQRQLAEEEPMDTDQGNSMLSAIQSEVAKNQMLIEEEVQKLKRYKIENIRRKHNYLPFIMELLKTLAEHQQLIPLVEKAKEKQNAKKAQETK
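Signal – fluorescence, ex 355 nm, em 460 nm · System – Proteasome-bound UCH37 · Input – 0.15 nM proteasome as dispensed · Timing – 30 min preincubation with enzyme, 25 min cleavage at room temperature · Read-out basis – percent inhibition of cleavage signal versus uninhibited and no-proteasome wells · Medium – Tris-HCl pH 7.4 with ATP-MgCl2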
Ecoli rRNA inh OD600 = second read-out of Ecoli rRNA inh, no call of its own (marks repeat the call); OD600 change, %; measured here: OD600 growth;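 optical density of the mix in the first replicate; 0 = DMSO median and -100 = no signal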
Ecoli rRNA inh RFP = recorded beside Ecoli rRNA inh, whose call it bears; RFP signal change, %; measured here: RFP humanized mutant strains;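 first replicate; 0 = DMSO median and -100 = no signal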
* marks the source's active call; other numbers are inactive results; i = inactive; nt = not tested or not shown. Some of the compounds tested; the hit share may differ from the screen's.

SMILES | FGF22 binding | HNF4A DNA FP | Beta2AR agonist | ALR H2O2 inh | E coli growth | Ecoli rRNA inh | Ecoli rRNA inh OD600 | Ecoli rRNA inh RFP | UCH37 inh
Cc1ccc(NC(=O)C2C3CCCC2C3c2ccccc2)cc1C (stereo unspecified) | nt | -1.5 | 6 | -18 | 0.73 | nt | nt | nt | 0.2
O=C(Nc1ccccn1)C1(c2cccs2)CCOCC1 | nt | -3.0 | 7 | -5 | 0.7 | nt | nt | nt | -15
C=CCNC(=S)N(Cc1ccccc1)Cc1ccccc1 | i | -3.3 | 3 | 0 | 0.67 | -25 | -28 | -4.4 | 5.2
Cc1cccc(C)c1C(=NCCCN(C)C)c1ccccc1 | nt | -1.9 | 3 | -4 | 0.69 | nt | nt | nt | 5.8
O=C(CS(=O)(=O)c1ccccc1)Nc1ccccn1 | i | 5.2 | 2 | -6 | 0.72 | 16 | 11 | -1.8 | 2.4
CCN(C(=O)C1CCCCC1)c1nnc(-c2cccnc2)s1 | nt | 0.7 | 5 | -1 | 0.73 | nt | nt | nt | 2.4
CC1(C(=O)NCc2ccc3c(c2)OCO3)CCN1CCc1ccccc1 (stereo unspecified) | i | 14 | nt | nt | nt | -35 | -59 | 5.0 | nt
CC(=O)Nc1ccc(S(=O)(=O)C(C#N)c2nc3ccccc3nc2NCCN2CCOCC2)cc1 (stereo unspecified) | i | 2.7 | -10 | -5 | 0.68 | 2 | 0 | -12 | -334
c1ccc(Cc2noc(CN3CCN(CCOc4ccccc4)CC3)n2)cc1 | i | 3.9 | 6 | -5 | 0.65 | 6 | -1 | -1.0 | -1.1
O=S(=O)([N-]c1nc2ccccc2nc1-[n+]1ccc(Cc2ccccc2)cc1)c1ccc(Br)s1 | i | -34 | -6 | -17 | 0.67 | -29* | -19* | -0.5* | 4.1
Cc1cc(C)c(C)c(S(=O)(=O)N2CCC(C(=O)OCC(=O)N3c4ccccc4NC(=O)C3(C)C)CC2)c1C | nt | -2.8 | 8 | -25 | 0.69 | nt | nt | nt | 3.9
O=C(COc1ccc(Cl)cc1Cl)NCCCN1CCOCC1 | nt | -3.5 | -11 | 0 | 0.66 | 1 | 7 | -0.2 | 6.7
O=C(COC(=O)C1(c2cccc(F)c2)CCCC1)NCc1ccc2c(c1)OCO2 | nt | 1.4 | -3 | nt | 0.66 | nt | nt | nt | 7.9
COc1cccc(NC(=O)C2C3C=CC4(O3)C2C(=O)N(CCCN2CCC(C)CC2)C4C(=O)NC2CCCCC2)c1 (stereo unspecified) | i | -1.2 | -3 | 1 | 0.66 | 10 | 6 | 2.5 | 6.5
COc1ccccc1NC(=O)CC1S/C(=N/N=C2\CCCc3ccccc32)NC1=O (stereo unspecified) | i | -3.6 | 1 | -2 | nt | -39 | -52 | 22 | nt
O[C@@H](CNC[C@H](O)c1ccccc1)c1ccccc1 | nt | 1.3 | -10 | -15 | 0.7 | nt | nt | nt | 0.4
Cc1ccccc1-c1nc(SCc2cccnc2)c2c(=O)n(C)c(=O)n(C)c2n1 | nt | -6.5 | -5 | 1 | 0.72 | 17 | 15 | 1.9 | 2.8
CC(C)C[C@H](NC(=O)OC(C)(C)C)C(=O)N/N=C/c1ccc2nccnc2c1 | nt | 3.0 | 2 | -12 | nt | nt | nt | nt | nt
CCn1c(SCC(=O)Nc2sc3c(c2C#N)CCCC3)nnc1-c1ccco1 | nt | 1.6 | -14 | 4 | 0.74 | -24 | -25 | -11 | 2.6
C=CCc1cc(C=O)cc(OC)c1OCc1c(Cl)cccc1Cl | nt | -2.8 | 13 | 34 | 0.76 | nt | nt | nt | 3.3
Nc1[nH]c(C(=O)c2ccccc2)c(-c2c(F)cccc2F)c1C(=O)c1ccc(Cl)c(Cl)c1 | i | -1.3 | nt | nt | nt | -6 | 5 | 5.0 | nt
CC(C)C(=O)NC(=S)Nc1ccc(S(=O)(=O)NC2CCCCC2)cc1 | i | 0.1 | 2 | 7 | 0.7 | -1 | -44 | -1.5 | 5.1
CCOC(=O)C1=C(COC(=O)/C=C/c2cc(OC)c(OC)c(OC)c2)NC(=O)NC1C (stereo unspecified) | i | 0.0 | 13 | 11 | 0.74 | 2 | 0 | 0.2 | -21
O=c1[nH]c(C2CCN(S(=O)(=O)c3cccc(Cl)c3)CC2)nc2c1nnn2Cc1ccccc1 | i | 7.2 | 2 | nt | 0.67 | -7 | -32 | 4.1 | 3.8
O=C1c2ccc([N+](=O)[O-])cc2C(=O)N1c1ccc(Cl)cn1 | i | -1.3 | -6 | -11 | 0.69 | 16 | 9 | -0.5 | 3.1
COc1ccccc1N1CCN(S(=O)(=O)c2ccc(-n3cnnn3)c(C)c2)CC1 | nt | -0.7 | -5 | 6 | 0.6 | nt | nt | nt | 1.9
CCN(Cc1nc2ccccc2c(=O)[nH]1)C(=O)CN1C(=O)NC2(CCCCC2C)C1=O (stereo unspecified) | i | 1.4 | 2 | -1 | 0.67 | 8 | 13 | -2.1 | 3.8
Cc1c(NC(=O)CN(c2ccc(F)cc2)S(=O)(=O)c2ccccc2)c(=O)n(-c2ccccc2)n1C | i | 4.8 | 3 | -1 | 0.7 | 9 | 13 | -1.2 | 2.8
O=S(=O)(Nc1ccc(C(O)(C(F)(F)F)C(F)(F)F)cc1)c1cccc2ccccc12 | i | 1.9 | nt | nt | nt | -45 | -77 | -14 | nt
CC[C@H](C)[C@H]1CNC(=O)C(=O)N1CC1CCN(CC2CCC(C)CC2)CC1 (stereo partly specified) | i | -1.0 | -6 | nt | nt | 19 | 13 | -0.3 | nt

A few values from the entries so far:
C=CCc1cc(C=O)cc(OC)c1OCc1c(Cl)cccc1Cl in ALR H2O2 inh → 34
Cc1c(NC(=O)CN(c2ccc(F)cc2)S(=O)(=O)c2ccccc2)c(=O)n(-c2ccccc2)n1C in UCH37 inh → 2.8
CC[C@H](C)[C@H]1CNC(=O)C(=O)N1CC1CCN(CC2CCC(C)CC2)CC1 (stereo partly specified) in Beta2AR agonist → -6
O[C@@H](CNC[C@H](O)c1ccccc1)c1ccccc1 in E coli growth → 0.7

Other compounds follow:
SMILES | FGF22 binding | HNF4A DNA FP | Beta2AR agonist | ALR H2O2 inh | E coli growth | Ecoli rRNA inh | Ecoli rRNA inh OD600 | Ecoli rRNA inh RFP | UCH37 inh
CC1(C)OC(=O)C(=CNc2cccc(O)c2)C(=O)O1 | i | 1.2 | -5 | -5 | 0.66 | 14 | 7 | 1.6 | 9.4
Cc1ccc(S(N)(=O)=O)cc1 | i | 1.8 | 15 | -4 | 0.65 | -2 | 0 | 1.1 | -0.3
CO[C@H]1O[C@H](C)[C@@H](O)C[C@H]1NC(=O)OCc1ccccc1 | i | 0.7 | -1 | 1 | 0.69 | 5 | 2 | -1.0 | 2.2
O=C(NCCc1nnc2ccc(N3CCCC3)nn12)c1ccccc1 | i | 1.1 | -5 | nt | 0.74 | 4 | 2 | -3.8 | 1.6
Cc1ccc(NC(=O)c2nc[nH]c2C(=O)N2CCN(c3ccccc3)CC2)cc1 | i | -3.4 | -7 | -3 | 0.72 | 14 | 21 | -5.3 | -3.0
COc1ccc(S(=O)(=O)Nc2nncs2)cc1 | nt | -2.0 | -5 | nt | 0.67 | nt | nt | nt | 0.1
CC1Cc2ccccc2N1C(=O)CN(C)CC(=O)Nc1cccc(F)c1 (stereo unspecified) | i | 1.0 | 3 | -1 | 0.67 | nt | nt | nt | 1.3
Cc1ccc(N(C(=O)c2csnn2)C(C(=O)NC2CCCC2)c2cccnc2)cc1 (stereo unspecified) | i | 3.6 | -5 | -4 | 0.64 | nt | nt | nt | -0.7
CC1Cc2ccccc2N1C(=O)CSc1nc2ccccc2s1 (stereo unspecified) | i | -0.1 | -5 | 0 | 0.69 | -27 | -30 | -7.4 | 4.2
C[C@H](NC(=O)COc1ccccc1)C(=O)OCC(=O)c1cc2ccccc2o1 | i | 6.5 | 16 | nt | 0.69 | 24 | 11 | 2.8 | 4.0
O=C(NCC1CCCCC1)c1cc(Br)ccc1Cl | i | 0.4 | 11 | 1 | 0.66 | 5 | 8 | -0.1 | 0.8
Cc1cc(S(=O)(=O)N2CCOCC2)ccc1OCC(=O)Nc1ccc(F)cc1 | i | 1.5 | 3 | -18 | 0.65 | -4 | 4 | -0.1 | 2.6
O=C1CNC(c2ccccc2)C(c2ccccc2)N1 (stereo unspecified) | i | 3.6 | nt | nt | nt | 7 | 7 | 3.3 | nt
COc1cc(C2Sc3ccccc3NC3=C2C(=O)OC3)cc(OC)c1OC (stereo unspecified) | nt | -6.8 | -13 | nt | 0.69 | nt | nt | nt | 0.3
CC(NC(=O)c1ccc(NC(=O)CC2SC(N3CCCC3)=NC2=O)cc1)c1ccc(F)cc1 (stereo unspecified) | i | 1.7 | -4 | 3 | 0.7 | nt | nt | nt | 3.3

Whole records as entered above. Order of screens: FGF22 binding	HNF4A DNA FP	Beta2AR agonist	ALR H2O2 inh	E coli growth	Ecoli rRNA inh	Ecoli rRNA inh OD600	Ecoli rRNA inh RFP	UCH37 inh
`O=C1CNC(c2ccccc2)C(c2ccccc2)N1` (stereo unspecified) reads i	3.6	nt	nt	nt	7	7	3.3	nt
`Cc1ccc(NC(=O)c2nc[nH]c2C(=O)N2CCN(c3ccccc3)CC2)cc1` reads i	-3.4	-7	-3	0.72	14	21	-5.3	-3.0

Further entries
SMILES | FGF22 binding | HNF4A DNA FP | Beta2AR agonist | ALR H2O2 inh | E coli growth | Ecoli rRNA inh | Ecoli rRNA inh OD600 | Ecoli rRNA inh RFP | UCH37 inh
COc1ccccc1C(C)NC(=O)c1ccc(C)o1 (stereo unspecified) | nt | -1.8 | 8 | -17 | 0.76 | nt | nt | nt | 0.4
Cc1ccc(C)c(OCCn2cc(/C=C(\C#N)C(=O)NCC3CCCO3)c3ccccc32)c1 (stereo unspecified) | nt | -0.6 | 1 | -3 | 0.7 | 3 | 0 | -0.3 | -4.0
Cn1c(SCc2ccc(F)cc2)nnc1-c1cccs1 | i | 14 | -22 | -7 | 0.71 | -8 | 0 | -6.9 | 3.6
C[C@H](CO)NC(=O)c1[nH]cnc1C(=O)Nc1cccc(Cl)c1 | i | 0.3 | nt | nt | nt | -11 | -8 | 0.5 | nt
COc1cc(C2N(C)CCC3(OCCO3)C2(C)C)cc(OC)c1OC (stereo unspecified) | nt | 2.9 | 0 | -3 | 0.68 | nt | nt | nt | 1.4
COc1cc(Br)c(C(C)NC(=O)c2cccc(Br)c2)cc1OC (stereo unspecified) | nt | 13 | 2 | -12 | 0.67 | nt | nt | nt | 4.1
CC(C)=C(NC(=O)c1ccccc1)C(=O)Nc1ccc(C(=O)O)cc1 | i | -2.4 | 0 | -5 | 0.73 | 0 | 3 | -7.2 | 5.3
Cn1c(=O)oc2cc(S(=O)(=O)N3CCC(N4CCCCC4)CC3)ccc21 | nt | 5.9 | -2 | 4 | 0.69 | nt | nt | nt | -1.1
O=C(Cn1ccc2ccccc2c1=O)NCCC(=O)Nc1cccnc1 | nt | 0.5 | 0 | -6 | 0.7 | nt | nt | nt | 0.3
O=C(CSC1=NCCS1)Nc1ccc(S(=O)(=O)N2CCCCCC2)cc1 | nt | 1.4 | 12 | 98* | 0.7 | nt | nt | nt | 6.5
Cc1ccn2c(CNCCn3cccn3)c(C(=O)N3CCCCCC3)nc2c1 | i | 0.6 | -5 | 0 | 0.72 | -10 | -13 | -2.1 | -2.4
CN1CCN(C(=O)c2ccc(N(C)S(=O)(=O)c3cccs3)cc2)CC1 | i | 4.6 | 1 | 1 | 0.71 | 20 | 15 | 0.7 | -3.2
